# Compound activity (PubChem BioAssay)
# HIV Env fusion – inhibitors of HIV-1 Env-driven cell-cell fusion, primary screen, HeLa-JRFL effector, CEM21 target cells, luciferase; inhibition, % at 12.3 µM; actives 1.1% (n = 360,000); AID 651610, 2012;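 active = mean replicate inhibition score of at least 50 and every replicate individually at or above 50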;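 note: 0% = plate neutral controls and 100% = maraviroc near 300 nM; one replicate is shown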
# MT1-MMP act inh – blockers of MT1-MMP proenzyme processing, primary screen, HT1080 RFP-PRO-GFP cells, GFP/RFP fluorescence; GFP/RFP ratio fluorescence, overnight; percent of plate control window, DMSO zero; GFP/RFP ratio change, % at 20 µM; actives 0.061% (n = 360,000); AID 651647, 2012;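 active = GFP/RFP ratio change of at least 30% with cell ATP level not reduced by more than half and red fluorescence within 50% of control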; note: strong numbers were not always called active
#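 Assay system: RFP-PRO-GFP reporter HT1080 cells; read-out basis: GFP/RFP fluorescence ratio; benchmarks: DMSO wells and RFP-L50D-GFP cells; doses: 20 µM single dose, 1% DMSO; schedule: overnight cell settling, then overnight compound exposure, 37 °C, 5% CO2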
# MT1-MMP act inh RFP – further read-out of MT1-MMP act inh, marked with its call; RFP signal change, %; measured here: RFP expression control read;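 0 = vehicle wells; hits needed this value within 50% of zero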
# * hit, by the source's call; [ ] = dose if it differs, or a comment. Some of the compounds tested, so the mix of outcomes need not match the whole.
HIV Env fusion	MT1-MMP act inh	MT1-MMP act inh RFP	SMILES
36	-4	-6	COc1ccc(CCN2CC(C(=O)N(C)CC(=O)Nc3ccc(Cl)c(C(F)(F)F)c3)CC2=O)cc1OC (stereo unspecified)
9	-2	0	COC(=O)[C@@]12C[C@@H](CC(=O)N3CCN(C(=O)C4CC4)CC3)C(=O)N(Cc3ccccc3)C1=CCC(C)(C)C2
3	3	3	O=C1C(c2ccccc2)CN1Cc1ccccc1 (stereo unspecified)
-35	1	-10	CCCCNC(=O)c1nc(C2CCN(S(=O)(=O)c3c(OC)cccc3OC)CC2)oc1-c1ccccc1
-16	4	5	CCCC(=O)N1CCC1(C)C(=O)NCc1ccc(SC)cc1 (stereo unspecified)
-3	2	6	O=C(Nc1ccc(F)cc1)C(c1cc2ccccc2o1)N1CCN(CC(=O)N2CCCC2)CC1 (stereo unspecified)
-4	2	5	COc1ccc(OC)c2c1CCC1(C2)NC(=O)NC1=O (stereo unspecified)
-6	1	-2	CC1OC(CCc2cccc(Cl)c2)Cc2[nH][nH]c(=O)c21 (stereo unspecified)

# Four compounds drawn at random from those above:
HIV Env fusion	MT1-MMP act inh	MT1-MMP act inh RFP	SMILES
-6	1	-2	CC1OC(CCc2cccc(Cl)c2)Cc2[nH][nH]c(=O)c21 (stereo unspecified)
-16	4	5	CCCC(=O)N1CCC1(C)C(=O)NCc1ccc(SC)cc1 (stereo unspecified)
-3	2	6	O=C(Nc1ccc(F)cc1)C(c1cc2ccccc2o1)N1CCN(CC(=O)N2CCCC2)CC1 (stereo unspecified)
-4	2	5	COc1ccc(OC)c2c1CCC1(C2)NC(=O)NC1=O (stereo unspecified)

# (more compounds)
HIV Env fusion	MT1-MMP act inh	MT1-MMP act inh RFP	SMILES
37	7	5	C#CCNC(=O)C[C@@H]1C[C@@]2(C(=O)OC)CCCCC=C2N(CCC2=CCCCC2)C1=O
-39	-2	3	CCOC(=O)[C@]12CCC=C1N(Cc1ccco1)C(=O)[C@H](CC(=O)NCCC(C)C)C2
-4	2	0	NC1=C(Cl)C(=O)c2ccccc2C1=O
7	-10	-7	Cc1cc2nc(C3CCCCC3)c(Cc3cccc(Cl)c3)n2c(C)c1Br
-13	-7	2	Cc1cc(O)c(C(C)C)cc1N=Cc1ccc(N(C)C)cc1
-19	9	-1	Cc1nc2ccc(C(=O)N3c4ccccc4N=C(c4ccc5c(c4)OCO5)C3C(=O)NCc3ccccc3)cc2[nH]1 (stereo unspecified)
-26	0	3	CCCCn1nnnc1C1(C)CCC(=O)N1Cc1ccc(OC)c(OC)c1 (stereo unspecified)
-3	4	2	COCCCN1C(=O)C(CC(=O)NC2CCCCC2)CC(C(=O)N2CCCCCC2)=C1C (stereo unspecified)
2	11	2	Cn1cc([C@]2(O)C(=O)N(c3ccccc3)c3ccccc32)c2ccccc21
-30	1	6	COc1ccc(C(=O)OCC(=O)N2CCc3ccccc32)cc1S(=O)(=O)N1CCOCC1
-6	3	0	CN1CCOc2c1cnn(CCO)c2=O
3	-2	0	CN1CCOC1c1ccc(C2OCCN2C)cc1 (stereo unspecified)
5	-1	5	CC1(c2nnnn2Cc2ccccc2)CCC(=O)N1CCc1ccc(O)cc1 (stereo unspecified)
-4	1	-2	CCCN1/C(=C(\C#N)C2=NS(=O)(=O)c3ccccc32)N(C)c2ccccc21
1	-3	8	O=C(Cc1cc(C(F)(F)F)cc(C(F)(F)F)c1)Nc1c(-c2ccccc2)[nH][nH]c1=O
-5	3	7	COC(=O)/C=C1\OCc2ccccc21
4	-3	3	C=CCNc1ncnc2c1ncn2[C@H]1CN(CCN2CCOCC2)C[C@@H](CO)O1
109*	-24	-37	CC1(C)CC[C@]2(C(=O)n3ccnc3)CC[C@]3(C)[C@H](C(=O)C=C4[C@@]5(C)C=C(C#N)C(=O)C(C)(C)[C@@H]5CC[C@]43C)[C@@H]2C1
5	-5	5	C[C@H](CO)N1C[C@H](C)[C@H](CN(C)S(=O)(=O)c2ccccc2)OCc2ccccc2-c2c(n(C)c3ccccc23)C1=O
15	-2	-6	CCCCNC(=O)C[C@@H]1C[C@@]2(C(=O)OCC)CCCC=C2N(Cc2ccc(Cl)cc2Cl)C1=O
-158	-7	-16	C=Cc1cc2c(cc1O)CCC1C2CCC2(C)C(O)CCC12 (stereo unspecified)
-84	9	-26	C=C1CC(COc2cc(=O)oc3ccccc23)(c2ccccc2)OC1=O (stereo unspecified)
5	3	7	CC(=O)C[C@H]1SC[C@@H](C(C)C)N1S(=O)(=O)c1ccc(C)cc1
-2	-1	0	CCOC(=O)[C@]12CCC=C1N(Cc1ccccc1)C(=O)[C@H](CC(=O)NCCc1ccccc1OC)C2
57*	1	3	O=C([C@H]1O[C@@H](n2ccc(=O)[nH]c2=O)[C@H](O)[C@@H]1O)N1CCN(Cc2ccccn2)CC1
0	-23	-28	COC(=O)[C@@]12C[C@@H](CC(=O)N3CCSCC3)C(=O)N(Cc3cccc4ccccc34)C1=CCC(C)(C)C2
-10	0	1	CC(C)Cc1nnc(N)s1
34	5	-6	CCCCNC(=O)C[C@@H]1C[C@@]2(C(=O)OCC)CCCC=C2N(CCC2=CCCCC2)C1=O
-17	1	4	COC(=O)[C@]12CCCCC=C1N(Cc1ccco1)C(=O)[C@H](CC(=O)N1CCOCC1)C2
2	-12	-3	CC(C)(C)NC(=O)C(c1ccc(-c2ccccc2)cc1)n1c(=O)c(-c2ccco2)nc2ccccc21 (stereo unspecified)
-6	-7	3	O=C(Nc1c(Br)cc2c(c1Br)Cc1ccccc1-2)C(Cl)Cl
-48	-4	-6	Cc1ccc(OCc2nc3ccccc3n2C(C(=O)Nc2c(C)cccc2C)C2CC2)cc1 (stereo unspecified)
-16	11	7	CC1=C2CCCC[C@@]23C2C(=O)N(C)C(=O)[C@@H]2ON3OC1 (stereo partly specified)
25	3	2	CCCCOCCCNC(=O)C[C@@H]1C[C@@]2(C(=O)OCC)CCCC=C2N(Cc2ccc3c(c2)OCO3)C1=O
-21	2	1	Cc1cccc(CN2CCC(n3nccc3NC(=O)CCCc3ccccc3)CC2)c1
-35	4	5	COc1cc2c(cc1NC(=O)C(F)(F)F)-c1ccc(NC(=O)C(F)(F)F)cc1C2
7[16.7 µM]	-2	5	O=C(C[C@H]1C=C[C@H](NC(=O)c2ccccn2)[C@@H](CO)O1)NCc1cc(F)cc(F)c1
-13	5	-1	C1=C[C@H]2CCCN3CC[C@@H]([C@@H]2[C@]32CO2)[C@H]1CCOCc1ccccc1
12	-1	6	Cc1ccc(S(=O)(=O)N[C@H]2CCC[C@@H]2O)cc1
11	4	4	CC(C)C(Cl)=NOC(=O)Nc1ccc(S(N)(=O)=O)cc1
-12	1	1	Cc1cccc(C)c1-n1nnnc1C1(C)CCC(=O)N1CCCN1CCOCC1 (stereo unspecified)
16	-10	-24	CCCCc1c(-c2ccc(F)cc2)ncn1CCc1ccccc1OC
-15	3	0	O=C(O)c1ccc(C=NNC(=O)c2cccc3ccccc23)cc1
7	1	4	COc1ccc(S(=O)(=O)N2CCC[C@H]2C(=O)N2CCC[C@H]2C(=O)NCc2ccccn2)cc1C
-30	6	-19	COc1cccc(C=C(C(C)=O)C(=O)c2ccccc2)c1
39	-10	-28	C=C1CC2(OC1=O)c1ccccc1CCc1ccccc12
24	2	4	O=C1NC[C@H](CCCCN2CCN(Cc3ccccc3)C(=O)C2=O)N(Cc2ccccc2)C1=O
-212	-3	0	CC(=O)C1(O)CCC2C3CC(C)C4=CC(=O)C=CC4(C)C3(F)C(O)CC21C (stereo unspecified)

# Ordered by number of heavy atoms (rising): 3 of the compounds above.
HIV Env fusion	MT1-MMP act inh	MT1-MMP act inh RFP	SMILES
16	-10	-24	CCCCc1c(-c2ccc(F)cc2)ncn1CCc1ccccc1OC
-212	-3	0	CC(=O)C1(O)CCC2C3CC(C)C4=CC(=O)C=CC4(C)C3(F)C(O)CC21C (stereo unspecified)
7	1	4	COc1ccc(S(=O)(=O)N2CCC[C@H]2C(=O)N2CCC[C@H]2C(=O)NCc2ccccn2)cc1C

# New compounds follow.
HIV Env fusion	MT1-MMP act inh	MT1-MMP act inh RFP	SMILES
-11	2	0	CCOC(=O)[C@]12CCC=C1N(Cc1ccc3c(c1)OCO3)C(=O)[C@H](CC(=O)NCc1cccs1)C2
-10	2	3	C[C@@H](NC(=O)[C@@H]1CCCN1C(=O)OC(C)(C)C)c1ccccc1
17	6	5	COc1ccc(CN2C(=O)CN(S(C)(=O)=O)CC2(C)C(=O)NCc2ccccc2)cc1OC (stereo unspecified)
-11	4	7	Cc1ccc2c(c1)N(CC(=O)Nc1nccs1)C(=O)CO2
2	3	5	Clc1ccc(Cc2ccccn2)cc1
-14	18	4	O=[N+]([O-])c1ccc(NCCNc2ccc([N+](=O)[O-])cc2)cc1
4	-4	-9	CCOC(=O)[C@]12CCC=C1N(Cc1cccc3ccccc13)C(=O)[C@H](CC(=O)NCc1cccc(C(F)(F)F)c1)C2
6	3	4	CC(C)(CO)CN1CCC(n2nccc2NC(=O)C2CCOC2)CC1 (stereo unspecified)
21	0	3	CC(C)=CCC[C@H](C)C[C@@H]1Cc2[nH][nH]c(=O)c2[C@H](c2ccc(F)cc2)O1
-4	1	-4	CCOC(=O)[C@]12CCC=C1N(Cc1cccc3ccccc13)C(=O)[C@H](CC(=O)NCc1cccc3ccccc13)C2
14	5	-8	Cc1ccc(SC[C@H](C)CN2CCC(NC(=O)OCc3ccccc3)CCC2=O)cc1 (stereo partly specified)
-26	11	7	C#CCNC(=O)C[C@@H]1C[C@@]2(C(=O)OCC)CCCC=C2N(Cc2ccc3c(c2)OCO3)C1=O
-43	3	3	Cc1ccc2c(C)c(C)c(=O)n(C)c2c1
-15	-1	3	COC(=O)C[C@H]1C=C[C@@H](NS(=O)(=O)c2ccc(C)cc2)[C@@H](CO)O1
-68	-8	-5	O=C1Nc2ccc(Br)cc2/C1=C/C(=O)c1ccccc1
7	-3	4	O=C(O)C1CCN(Cc2oc(CO)cc(=O)c2O)C1 (stereo unspecified)
-15	-8	-7	CCCCNC(=O)C[C@@H]1C[C@@]2(C(=O)OC)CCCCC=C2N(Cc2ccc(Cl)cc2Cl)C1=O
1	-4	1	O=C(c1ccccc1)c1cccc2ccccc12
-64	5	1	CCOC(=O)[C@]12CCCC=C1N(Cc1ccc3c(c1)OCO3)C(=O)[C@H](CC(=O)N1CCSCC1)C2
1	0	2	COc1ccc(CN2C(=O)c3cccc4cccc(c34)C2c2nc3ccccc3[nH]2)cc1 (stereo unspecified)
-5	0	0	Cc1ccc2c(CSc3nc4ccccc4c(=O)n3CCCO)cc(=O)oc2c1
69*	-9	-3	N=c1nc2n(cc1F)C1OC(CO)C(O)C1O2 (stereo unspecified)
93*	-4	-3	O=C(Nc1ccccc1Cl)c1ccccc1CC(O)(c1ccccc1)c1ccccc1
3	-6	-2	COc1cc(C(=O)OCC(=O)N2CCNC2=O)cc(Cl)c1OC
25	3	4	C#CCNC(=O)C[C@@H]1C[C@@]2(C(=O)OC)CC(C)(C)CC=C2N(CCc2ccc(OC)c(OC)c2)C1=O
15	-1	1	O=Nc1nc2ncccn2c1-c1ccccc1
8	-1	-1	CCOc1nc(OCC)c2[nH]c(C(=O)O)c(Br)c2n1
-135	-1	-1	COc1ccccc1Cc1c(-c2ccco2)nc2c3ccccc3ccn12
-8	-10	-2	CC(C)C[C@@H]1CN(CCCC[C@H]2CNC(=O)C(=O)N2CCC2CCCCC2)C(=O)C(=O)N1CCC1CCCCC1
2	2	-6	COc1ccccc1CNCC(=O)Nc1cc(S(=O)(=O)N2CCOCC2)ccc1Cl
-13	-2	8	COC(=O)C[C@@H]1C=C[C@@H](NC(=O)c2ccccc2F)[C@@H](CO)O1
-8	11	-1	CC(C)C[C@@H]1O[C@H](CCc2ccccc2)Cc2[nH][nH]c(=O)c21
-43	0	0	O=[N+]([O-])c1ccccc1C=CC=NN=Cc1ccccc1O
-5	3	7	Cn1cc([C@]2(O)C(=O)Nc3ccc(F)cc32)c2ccccc21
-2	1	-3	CC(C(=O)NCc1ccccc1)n1c(CSCCOc2ccccc2)nc2ccccc21 (stereo unspecified)
-28	0	1	O=C(Nc1ccc2c(c1)OCCO2)C1c2ccccc2OCC(=O)N1Cc1ccccn1 (stereo unspecified)
52	-1	2	O=C(COc1ccccc1Cl)Nc1ccc2[nH]c(=O)[nH]c2c1
10	5	0	O=C1NC[C@H](CC2CCCCC2)N(CCc2cc(C(F)(F)F)cc(C(F)(F)F)c2)C1=O
12	2	1	COc1ccc([C@H]2C[C@@H](n3cc(COC(=O)c4ccccc4)nn3)[C@H](O)CN2CC2CCCCC2)cc1
9	0	-3	CCCCCCCCCCCCCCCC(=O)Nc1ccn(C2OC(CO)C(O)C2O)c(=O)n1 (stereo unspecified)
-63	3	-3	Oc1ccc(C[C@H]2CN([C@@H](Cc3ccccc3)CN3CCCC3CN3C(=S)NC[C@@H]3Cc3ccccc3)C(=S)N2CCc2ccccc2)cc1 (stereo partly specified)
-18	2	-3	COC(=O)[C@@]12C[C@@H](CC(=O)NCCc3ccccc3OC)C(=O)N(Cc3ccc4c(c3)OCO4)C1=CCC(C)(C)C2
-115	-4	-8	CC#Cc1cc2c(cc1O)CCC1C2CCC2(C)C(O)CCC12 (stereo unspecified)

# An excerpt from above, limited to HIV Env fusion.
Compound | HIV Env fusion
Cn1cc([C@]2(O)C(=O)Nc3ccc(F)cc32)c2ccccc21 | -5
CC(C(=O)NCc1ccccc1)n1c(CSCCOc2ccccc2)nc2ccccc21 (stereo unspecified) | -2
O=C(Nc1ccc2c(c1)OCCO2)C1c2ccccc2OCC(=O)N1Cc1ccccn1 (stereo unspecified) | -28
O=C(COc1ccccc1Cl)Nc1ccc2[nH]c(=O)[nH]c2c1 | 52
